Assay outcomes as filed in PubChem BioAssay.
Vaccinia Venus = qHTS for Stage-Specific Inhibitors of Vaccinia Orthopoxvirus: Venus Reporter Primary qHTS; AID 720580, 2013; 0.46% of 330,000 active; Potency, µM (top dose mostly 36.5 µM), for the others: at the top dose activity change, negative = inhibition, most hits filed as inhibitors; Vaccinia virus Venus reporter expression, fluorescence; active means well fitted inhibition curve with a large enough effect; inconclusive means small, poorly fitted or top-dose-only effect; inactive means no such curve, though single readings can be large or run the other way; tested in A549 cells; also: nearly all actives have a fitted effect of over 30% in size; inactives centre near -10
Vaccinia mCherry = qHTS for Stage-Specific Inhibitors of Vaccinia Orthopoxvirus: mCherry Reporter Primary qHTS; Vaccinia virus mCherry reporter infection, fluorescence; about a quarter of the inactives have no number; Potency, µM (series often up to 36.5 µM), inactives show at the highest dose activity change, negative = inhibition, usual class: inhibitors; 0.63% of 310,000 active; AID 720579, 2013; active = well fitted inhibition curve with a large enough effect; inconclusive = small, poorly fitted or top-dose-only effect; inactive = no such curve, though single readings can be large or run the other way; tested in A549 cells; also: nearly all actives have a fitted effect of over 35% in size; inactives centre near -10
Starred values were filed as active, the others as inactive; i = inactive; u = inconclusive; x = no result given; & = joins results of further samples; [ ] = remark or other dose. % is scaled to controls: 0 for no effect and ±100 for the full control effect; potency is read from the fitted curve at half-maximal effect.

SMILES	Vaccinia Venus	Vaccinia mCherry
C[C@@H](C(O)c1ccccc1)N(C)C(=O)CCc1ccccc1 (some centres not stated)	-6%	-5%
CC(C)(C)c1ccc(C(=O)NCC(=O)N2CCCC2)cc1	-1%	-8%
COc1ccc(C(=O)N2CCc3[nH]nc(-c4ccccc4)c3C2)cc1	-29%	-25%
COc1ccc(-n2nc(C(=O)NCC(=O)N(C)Cc3ccccc3)c3ccccc3c2=O)c(OC)c1	-8%	-18%
COC(=O)CC1Oc2ccccc2N(Cc2ccc(C)cc2)C1=O (configuration not stated)	-1%	-12%
COC(C[C@H]1O[C@@H]1[C@H](O)COCc1ccccc1)OC	-12%	i
O=C(Cn1cnc2ccccc2c1=O)Nc1nc2ccccc2s1	-12%	i
CCCCCOc1ccc(C2c3c(oc4ccccc4c3=O)C(=O)N2c2nc(C)c(C)s2)cc1OCC (configuration not stated)	-6%	-18%
COc1ccc(NC(=O)COC(=O)c2cc([N+](=O)[O-])ccc2N2CCOCC2)cc1	-10%	-18%
O=c1[nH]c(=O)n(C(c2ccccc2)c2ccccc2)cc1Br	-11%	i
CC1CCCN(c2nc3nonc3nc2N2CCCC(C)C2)C1 (configuration not stated)	-9%	x
Cc1nnsc1C(=O)NC1CCCc2c1cnn2-c1cc(F)cc(F)c1 (configuration not stated)	-9%	i
Cc1ccc(S(=O)(=O)N(c2cccc(C(F)(F)F)c2)C2C=CS(=O)(=O)C2)cc1 (configuration not stated)	-8%	-18%
CC1CCC(N2CCN(C(=O)COc3ccccc3)CC2)CC1 (configuration not stated)	-13%	-3%
CCOc1ccc(CN2CCN(Cc3ccsc3)C(CCO)C2)cc1CO (configuration not stated)	-8%	i
CCn1c(SCC(=O)Nc2ccccc2C(=O)OC)nc2ccsc2c1=O	3%	3%
COCCOC(=O)c1c(C)n(C)c2ccc(OC(=O)c3ccco3)cc12	-9%	-1%
COc1ccc(NC(=S)NNC(=S)Nc2cccc(C(F)(F)F)c2)cc1	-19%[7.34 µM]	u
O=C1NC(=O)N(Cc2ccccc2)C1=O	-3%	-1%
O=C(NCCCN1CCOCC1)C(=O)NCc1ccccc1Cl	-10%	-8%
NCCc1ccn[nH]1	-15%	-1%
O=C(NCCCn1ccnc1)C(=O)NCC(c1cccnc1)N1CCN(c2ccccc2)CC1 (configuration not stated)	-13%	-28%
O=C(COC(=O)Cn1[nH]c(=O)c2ccccc2c1=O)Nc1ncc(Cl)cc1Cl	-4%	-7%
COc1ccccc1C1(CCN=Cc2ccc(N(C)C)cc2)CCOC(C)(C)C1 (configuration not stated)	-12%	-8%
COc1cc(-c2ccc3cc(OC)c(OC)c(OC)c3c2)cc(OC)c1OC	u	-30%
CCOc1ccc(C(CC(=O)O)n2cnnn2)cc1OC (configuration not stated)	4%	0%
Cc1ccccc1CSc1nnnn1-c1ccc(C(N)=O)cc1	-30%	u
Cc1c(NC(=O)c2cccc(NC(=O)C(C)Oc3ccccc3)c2)c(=O)n(-c2ccccc2)n1C (configuration not stated)	-10%	i
C=CCNC(=S)/N=C/c1c(O)[nH]c(=O)[nH]c1=O	-15%	i
COc1ccc(C(C#N)CC(=O)c2ccc(OC)c(OCc3ccccc3)c2)cc1OC (configuration not stated)	u	-18%
Cc1nn(CC(C)C)c(Cl)c1C(=O)O	-1%	i
O=C(NC(=S)Nc1ccccn1)c1ccc(-c2ccccc2)cc1	-29%	11µM*
Cc1ccc(S(=O)(=O)N(C)CC(=O)Nc2cc(C)ccn2)cc1	-3%	-9%
CNC(=O)c1c[nH]n2c(=O)c(Cc3ccccc3F)c(C)nc12	-12%	i
Cc1cc(C)n2nc(SCCCC(=O)c3ccc(F)cc3)nc2n1	-6%	-11%
COC(=O)CSc1cccc2c1C(=O)CC2c1ccccc1 (configuration not stated)	5%	i
O=C(CCn1cccc1)Nc1nccs1	-12%	i[1.46 µM]
CCOC(=O)c1c(C)[nH]c(C)c1C(=O)COC(=O)c1nc2nccc(C)n2n1	-4%	10%
O=C(N/N=C/c1c(Nc2cccc(C(F)(F)F)c2)nc2ccccn2c1=O)c1ccccc1[N+](=O)[O-]	-5%	-12%
COc1ccc(CNC(=O)[C@H](C)NC(=O)C2CCN(S(=O)(=O)c3ccccc3)CC2)cc1	0%[7.34 µM]	11%[7.34 µM]

In a second layout: three of the compounds above
SMILES: COc1cc(-c2ccc3cc(OC)c(OC)c(OC)c3c2)cc(OC)c1OC
  Vaccinia Venus = u	Vaccinia mCherry = -30%

SMILES: O=C(COC(=O)Cn1[nH]c(=O)c2ccccc2c1=O)Nc1ncc(Cl)cc1Cl
  Vaccinia Venus = -4%	Vaccinia mCherry = -7%

SMILES: COc1ccc(CNC(=O)[C@H](C)NC(=O)C2CCN(S(=O)(=O)c3ccccc3)CC2)cc1
  Vaccinia Venus = 0%[7.34 µM]	Vaccinia mCherry = 11%[7.34 µM]

Additional records follow:
SMILES	Vaccinia Venus	Vaccinia mCherry
O=C(CN1CCN(S(=O)(=O)c2ccc(F)cc2)CC1)Nc1ccc(Cl)c(C(F)(F)F)c1	u	x
COc1ccccc1S(=O)(=O)Nc1ccc2cn[nH]c2c1	-9%	-14%
Cn1c(=O)c2c(nc(SCC(=O)NCc3ccc4c(c3)OCO4)n2Cc2ccccc2)n(C)c1=O	-23%	x
COc1ccc(C(=O)CSc2nnc(C3CCCCC3)n2N)c(OC)c1	-26%	x
Cc1ccc(-c2nc(SCC(=O)NCC3CCCO3)c(-c3ccc(Cl)cc3)[nH]2)cc1 (configuration not stated)	-17%	u
Cc1c(C(=O)NCc2ccccc2)sc2nc3n(c(=O)c12)CCCCC3	-7%[7.34 µM]	-4%[7.34 µM]
CC(C)=CCn1c2ccc(NC(=O)Nc3ccc(N(C)C)cc3)cc2c(=O)n1C	-19%	21%
Nc1nonc1-c1nc2ccccc2n1CC(=O)N/N=C/c1ccc(-c2ccccc2C(=O)O)o1	2%	5%
Cc1cc(C)cc(NC(=O)CSc2nc(N)c(NC(=O)c3cccs3)c(=O)[nH]2)c1	-9%	3%
Cc1cc(C)c(C(=O)NNC(=O)c2cccnc2)c(C)c1	-14%	14%
O=C(CN(Cc1ccccc1)S(=O)(=O)c1ccc(S(=O)(=O)N2CCOCC2)cc1)Nc1ccccc1	-11%	-14%
CCN(CC)C(=O)COc1cc(C)cc2oc(=O)cc(-c3ccccc3)c12	-14%	x
CCCn1cc(S(=O)(=O)c2ccc(OC)cc2)c(=O)c2cc(OCC)ccc21	-12%[7.34 µM]	-16%[7.34 µM]
C#C[C@]1(O)CC[C@H]2[C@@H]3CCC4=CC(=O)CC[C@@H]4[C@H]3CC[C@@]21C	-22%&-14%	-2%
Cc1ccc(F)cc1NC(=O)CSc1ncccn1	13%	-12%
CCCCN(C(=O)c1nn(C)c(=O)c2ccccc12)c1c(N)n(CC(C)C)c(=O)[nH]c1=O	-13%	-16%
O=C(c1ccccc1Cl)N1CCNCC1	0%	i
Cc1ccc(-n2c(SCC(=O)NCC3CCCO3)nnc2-c2ccoc2C)cc1 (configuration not stated)	-19%	-3%
CCn1nnc2cc(C(=O)Nc3ccc(Cl)cc3C)ccc21	-8%	-11%
COc1ccc(S(=O)(=O)Nc2ccc3c(c2)n(C)c(=O)n3C)cc1F	-13%	i

Retrieved one by one from the entries so far:
SMILES	Vaccinia Venus	Vaccinia mCherry
Cc1ccc(-n2c(SCC(=O)NCC3CCCO3)nnc2-c2ccoc2C)cc1 (configuration not stated)	-19%	-3%
CCn1nnc2cc(C(=O)Nc3ccc(Cl)cc3C)ccc21	-8%	-11%

(list continues)
SMILES	Vaccinia Venus	Vaccinia mCherry
O=C(Cn1nc(C(F)(F)F)c2c1CCCC2)Nc1ccc(F)c(Cl)c1	-13%	-19%
CCOC(=O)N1CCN(C(=O)C[C@@H]2C[C@@]3(C(=O)OCC)CCCC=C3N(Cc3ccc4c(c3)OCO4)C2=O)CC1	2%	3%
CCc1cnc2c(c1SCC(=O)Nc1ccc(OC)c(OC)c1)c(=O)n(C)c(=O)n2C	-11%	-12%
O=C(NCC1COc2ccccc2O1)c1cccc(S(=O)(=O)N2CCN(c3ccccc3)CC2)c1 (configuration not stated)	-25%	-24%
Cc1ccccc1NC(=O)Cc1c(O)c2ccccc2[nH]c1=O	-2%	u
C=CCC1(CC=C)CCCN1C(=O)C1CCC(=O)N(CCc2ccccc2)C1 (configuration not stated)	7%	-14%
Cc1csc(=O)n1CC(=O)OCc1nnc(-c2ccccc2)o1	-7%	i
Cc1cn(C)c(CC(=O)N2CCN(c3cccc(Cl)c3)CC2)c1C(=O)O	-7%	-8%
CCOC(=O)c1cccc(NC(=O)CCc2nnc3ccc(N4CCOCC4)nn23)c1	-6%	i
CN1CC[C@@]2(C)c3cc(OC(=O)Nc4ccccc4)ccc3N(C)[C@@H]12	-5%	-6%
O=C(COC(=O)Cc1ccc(Cl)c(Cl)c1)NCCc1ccccc1	3%	i
Cc1cccc(-c2noc(CN(C(=O)COc3ccc(C(C)C)cc3)C(C)C)n2)c1	-8%	-14%
COc1ccc(Oc2cccc(Cl)c2CNC(=O)CSCC(=O)O)cc1	11%	0%
CCc1nnc(NC(=O)CSc2nnc(-c3ccco3)n2CCOC)s1	-2%	-4%
Cc1cc2cc(CN(Cc3ccco3)C(=O)C3CCCCC3)c(=O)[nH]c2cc1C	-4%	x
COc1ccc(CCNC(=O)c2ccc3c(c2)N(Cc2ccc(F)cc2)CCS3)c(OC)c1	-15%	-9%
CNC(=O)C(=O)Nc1ccc2c(c1)N(S(=O)(=O)c1cccs1)CCC2	-11%	i
CCC(=O)N1c2ccc(S(=O)(=O)N3CCN(c4cc(C)ccc4C)CC3)cc2CC1C (configuration not stated)	-14%	i
CSCCC(NC(=O)c1ccccc1Cl)C(=O)NCCOc1ccccc1 (configuration not stated)	-12%	-14%
S=C(NCc1ccc(Cl)cc1Cl)Nc1ccccc1	-11%	i
CN(c1ccccc1)S(=O)(=O)c1cccc(NC(=O)c2cc(=O)c3ccccc3o2)c1	-4%	-12%
CCOC(=O)CCC(=O)O[C@H]1[C@H](O[C@@H]2[C@@H](C)[C@H](O[C@H]3C[C@@](C)(OC)[C@@H](O)[C@H](C)O3)[C@@H](C)C(=O)O[C@H](CC)[C@@](C)(O)[C@H](O)[C@@H](C)C(=O)[C@H](C)C[C@@]2(C)O)O[C@H](C)C[C@@H]1N(C)C	-14%	i
Cc1ccc(CN2CC(N3CCN(C4CCN(C)CC4)CC3)CS2(=O)=O)cc1 (configuration not stated)	-8%	10%
Cc1cc(C)c(NC(=O)Cn2c(=O)n(CCC(C)C)c(=O)c3cccnc32)c(C)c1	-16%	-9%
CCc1nnc(NC(=O)CSc2nccn2Cc2ccc(C)cc2)s1	-8%	2%
CCOC(=O)Nc1cccnc1Sc1ccc(Cl)cc1	2%	20%
Cc1ccc(C(=O)N2CCc3cc(CNC(=O)CCc4ccccc4)ccc32)cc1	-14%	-1%
O=C(c1ccc2c(c1)N(Cc1ccccc1F)C(=O)c1ccccc1S2=O)N1CCOCC1 (configuration not stated)	-13%	-6%
C=CCOc1cccc(C2C(C(=O)c3ccc(C)o3)=C(O)C(=O)N2Cc2ccncc2)c1 (configuration not stated)	-10%	i
COc1ccc(C(=O)COC(=O)CCC(=O)c2cccs2)cc1	2%	i
Cc1cc(C(=O)N/N=C2\CC(=O)c3ccccc32)c(C)n1-c1ccc(F)cc1	-14%	u
CCCC(c1nnnn1Cc1cccs1)N1CCN(C)CC1 (configuration not stated)	-21%	-26%
Cc1cccc(C)c1OCc1nnc(SCC(=O)Nc2nccs2)o1	-2%	2%
CCn1c(SCC(=O)Nc2ccc(N(C)C)cc2)nnc1-c1cccc(C)c1	-15%	x
C#CCN(C[C@H]1[C@H](OC(=O)NC2CCCC2)[C@H](OC(=O)NC2CCCC2)C[C@@H](C(=O)OC)[C@H]1C(=O)OC)S(=O)(=O)c1ccc(C)cc1	u	-23%
O=C(COc1ccc(Br)cc1)NN1C(=O)c2ccccc2C1=O	0%[7.34 µM]	-1%[7.34 µM]
CCn1cc(C(=O)O)c(=O)c2cnc(N3CCCC3)nc21	-11%	-10%
Cc1ccc([C@@H]2[C@@H]3C(=O)N(c4ccccc4)C(=O)[C@@H]3[C@]3(C)C(=O)N(Cc4ccc(-c5ccccc5)cc4)CC(=O)N23)o1	-17%	-2%
COc1ccccc1C(=O)NNC(=O)C1CCCO1 (configuration not stated)	-17%	-10%

Copied from the results shown for reference:
SMILES	Vaccinia Venus	Vaccinia mCherry
CCn1c(SCC(=O)Nc2ccc(N(C)C)cc2)nnc1-c1cccc(C)c1	-15%	x
C#CCN(C[C@H]1[C@H](OC(=O)NC2CCCC2)[C@H](OC(=O)NC2CCCC2)C[C@@H](C(=O)OC)[C@H]1C(=O)OC)S(=O)(=O)c1ccc(C)cc1	u	-23%
O=C(COc1ccc(Br)cc1)NN1C(=O)c2ccccc2C1=O	0%[7.34 µM]	-1%[7.34 µM]

As entered above:
Vaccinia Venus with `CCOC(=O)Nc1cccnc1Sc1ccc(Cl)cc1` : 2%
Vaccinia Venus with `Cc1cc(C)c(NC(=O)Cn2c(=O)n(CCC(C)C)c(=O)c3cccnc32)c(C)c1` : -16%
Vaccinia mCherry with `Cc1cccc(C)c1OCc1nnc(SCC(=O)Nc2nccs2)o1` : 2%
Vaccinia Venus with `Cc1ccc(CN2CC(N3CCN(C4CCN(C)CC4)CC3)CS2(=O)=O)cc1` (configuration not stated) : -8%
Vaccinia mCherry with `Cc1ccc([C@@H]2[C@@H]3C(=O)N(c4ccccc4)C(=O)[C@@H]3[C@]3(C)C(=O)N(Cc4ccc(-c5ccccc5)cc4)CC(=O)N23)o1` : -2%
Vaccinia Venus with `O=C(c1ccc2c(c1)N(Cc1ccccc1F)C(=O)c1ccccc1S2=O)N1CCOCC1` (configuration not stated) : -13%
